# MARV entry inh = qHTS for inhibitors of binding or entry into cells for Marburg Virus. Marburg virus pseudotyped entry inhibition, cell reporter; control for the full effect not named in the record; about a third of the inactives were read at about 46 µM. Potency, µM (series often up to 37.8 µM), for the others: at the top dose activity change, negative = inhibition, usual class: inhibitors. 300,000 tested, 1.8% active; active = well fitted inhibition curve with a large enough effect; inconclusive = small, poorly fitted or top-dose-only effect, or effect the other way; inactive = flat fitted curve, though single readings scatter; tested in HEK293 cells; about a fifth of its hits are not listed in these tables; further: on the % scale 0 is the no-effect control and ±100 the full control effect; luciferase read-out
# Cruzain noTriton = qHTS Assay for Promiscuous and Specific Inhibitors of Cruzain (without detergent) | 200,000 tested, 2.3% active | Potency, µM, for inactives: max response, negative = inhibition, actives largely listed as inhibitors | purified cruzain, Z-FR-AMC fluorescence, no detergent | Cruzipain (Trypanosoma cruzi), P25779 | AID 1476, 2009;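 further: plate controls were enzyme without inhibitor for no effect and buffer without enzyme for full effect; nearly all actives have a fitted effect of over 40% in size; top concentration of the series not given in the record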
# Target sequence (P25779 123-467 limits assumed): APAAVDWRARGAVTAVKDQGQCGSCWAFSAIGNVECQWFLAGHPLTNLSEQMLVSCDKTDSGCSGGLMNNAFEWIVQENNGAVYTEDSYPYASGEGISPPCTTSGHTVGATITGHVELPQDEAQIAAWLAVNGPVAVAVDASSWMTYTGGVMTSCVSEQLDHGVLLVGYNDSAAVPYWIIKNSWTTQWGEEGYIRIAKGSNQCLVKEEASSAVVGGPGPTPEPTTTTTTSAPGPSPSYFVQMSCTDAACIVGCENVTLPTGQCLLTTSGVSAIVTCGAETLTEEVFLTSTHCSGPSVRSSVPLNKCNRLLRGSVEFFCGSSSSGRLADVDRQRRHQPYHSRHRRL
#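 Detergent-free condition (0.00005% Triton X-100) in acetate buffer pH 5.5 with DTT. 1.5 nM enzyme and compound were pre-mixed 15 min, then 2 uM Z-FR-AMC substrate added; reaction progress from fluorescence change between first and third reads (60 s).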
# 2A StopGo = High Throughput Screening for Foot and Mouth Disease Virus Antivirals; human cells with a luciferase reporter of 2A StopGo recoding; control for the full effect not named in the record; Potency, µM (highest dose often 57.9 µM), for the others: at the top dose signal change, negative = less light; 410,000 tested, 1.2% active; active = well fitted falling curve with a large enough effect; inconclusive = small, poorly fitted or top-dose-only effect; inactive = no such curve, though single readings can be large or run the other way; tested in HEK293T cells; further: on the % scale 0 is the no-effect control and ±100 the full control effect; nearly all actives have a fitted effect of over 45% in size; luciferase light after 4 h
# RE007 growth inh = qHTS Assay for Inhibitors of the HIV-1 protein Vpr. S. pombe RE007 Vpr strain, BacTiter-Glo ATP luminescence, 24 h; control for the full effect not named in the record. Potency, µM (titrated, usually from 92.2 µM), inactives show at the highest dose activity change, negative = less growth. 360,000 tested, 0.21% active; active = well fitted falling curve with a large enough effect; inconclusive = small, poorly fitted or top-dose-only effect; inactive = no such curve, though single readings can be large or run the other way;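 further: on the % scale 0 is the no-effect control and ±100 the full control effect; nearly all actives have a fitted effect of over 50% in size; the assay follows cell death caused by Vpr and the record does not say whether a fall means rescue or toxicity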
#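 Fission yeast strain RE007, carrying one chromosomally integrated HIV-1 vpr copy, was seeded at OD 0.01 in PMG+AL medium with 23 nL pinned compound. After 24 h at 30 °C and 99% humidity, viability was read by BacTiter-Glo luminescence.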
# SARS PLP yeast = qHTS of Yeast-based Assay for SARS-CoV PLP; S. cerevisiae expressing SARS-CoV PLpro, growth rescue; control for the full effect not named in the record; Potency, µM (top dose mostly 32.9 µM), inactives show at the highest dose activity, positive = growth rescue; 330,000 tested, 0.19% active; AID 485353, 2010; active means well fitted rising curve with a large enough effect; inconclusive means small, poorly fitted or top-dose-only effect; inactive means no such curve, though single readings can be large or run the other way; further: 0% is about no effect; nearly all actives have a fitted effect of over 55% in size; growth read by luminescence after 48 h
# Cruzain Triton = qHTS Assay for Promiscuous and Specific Inhibitors of Cruzain (with detergent). Cruzipain (Trypanosoma cruzi), P25779. purified cruzain, Z-FR-AMC fluorescence, 0.01% Triton. 200,000 tested, 0.43% active. Potency, µM, without a hit: max response, negative = inhibition, actives largely listed as inhibitors;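 further: plate controls were neutral wells for no effect and buffer without enzyme for full effect; nearly all actives have a fitted effect of over 40% in size; top concentration of the series not given in the record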
#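 Detergent-containing run (0.01% Triton X-100) in acetate buffer pH 5.5 with 5 mM DTT: enzyme at 1.5 nM final, 15 min compound preincubation at room temperature, then 2 uM Z-FR-AMC substrate. Activity taken as 60 s fluorescence increase at 360/450 nm.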
# LASV entry inh = qHTS for Inhibitors of binding or entry into cells for Lassa Virus; AID 540256, 2011; Lassa virus pseudotype entry inhibition, cell reporter; control for the full effect not named in the record; 300,000 tested, 1.2% active; Potency, µM (titrated, usually from 37.9 µM), without a hit: at the top dose activity change, negative = inhibition, hits mostly inhibitors; active means well fitted inhibition curve with a large enough effect; inconclusive means small, poorly fitted or top-dose-only effect, or effect the other way; inactive means flat fitted curve, though single readings scatter; tested in HEK293 cells; further: on the % scale 0 is the no-effect control and ±100 the full control effect; nearly all actives have a fitted effect of over 50% in size; luciferase read-out
# NS1 inh = qHTS Assay for Inhibitors of Influenza NS1 Protein Function; 270,000 tested, 0.4% active; Potency, µM (highest dose often 46.1 µM), for inactives: top-dose activity, positive = more growth; S. cerevisiae slowed by influenza A NS1, growth recovery by OD600; active means well fitted rising curve with a large enough effect; inconclusive means small, poorly fitted or top-dose-only effect; inactive means no such curve, though single readings can be large or run the other way; further: nearly all actives have a fitted effect of over 50% in size
#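 In this qHTS, NS1 from influenza A is expressed in budding yeast, where it slows growth. Cells are switched from glucose to 2% galactose medium (pH 6.0, -URA), treated with compound, and growth recovery is read at OD600.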
# Active calls of the source: *; ? = inconclusive; nt = no result given; & = joins results of further samples; [ ] = dose if it differs, or a comment. Unless noted, the call rests on the fitted dose curve; in most records, active means well fitted curve in the direction sought with a large enough effect; inconclusive means small, poorly fitted or top-dose-only effect, or another doubt; inactive means no such curve, though single readings can be large; an effect the other way counts as inactive or inconclusive. Potency means the concentration at half of the fitted maximal effect.
SMILES,MARV entry inh,Cruzain noTriton,2A StopGo,RE007 growth inh,SARS PLP yeast,Cruzain Triton,LASV entry inh,NS1 inh
CC(C)Cc1nn2c(=O)cc(COC(=O)c3ccc(NC(=O)c4cccs4)cc3)nc2s1,nt,2%,40%[activator],nt,nt,2.3%,?,nt
C#CCOCCOCCOCCNc1nc(N2CCN(C(=O)Cn3cc(CC(C)O)nn3)CC2)nc(N2CCN(C(=O)Cn3cc(CC(C)O)nn3)CC2)n1 (stereo not drawn),35%,-5%,-12%,-1%,4%,0.1%,?,-12%
O=C(COc1ccc(S(=O)(=O)N2CCCCC2)cc1)NCc1ccncc1,?,2%,0%,27%,1%,0.9%,10%,-6%
Cc1cc(-c2cc(C(=O)NC3CCCC3)on2)nc(NC2CCCC2)n1,nt,nt,-9%,-3%,-1%,nt,nt,-3%
O=C(NC(=S)N1CCOCC1)C12CC3CCC(CC(C3)C1)C2,15%,-2%,-14%,-9%,?,-1.0%,0%,1%
COc1ccc(OC)c(C2C(C#N)=C(N)Oc3c2c(C)nn3-c2cccc(Cl)c2)c1 (stereo not drawn),?,1%,?,-15%,-6%,-18%,2%,-57%
CC1CCC/C(=N/Nc2ccc([N+](=O)[O-])cc2[N+](=O)[O-])C1 (stereo not drawn),0%,-16%,-15%,-24%,2%,-2.9%,4%,16%
CC(NC(=O)C1CCN(S(=O)(=O)c2ccc3nc4c(c(C(=O)O)c3c2)CCCC4)CC1)c1ccccc1 (stereo not drawn),-16%&11%[46.1 µM],?,-4%&12%,16%,1%,-11%,-4%[46.1 µM],28%
Cc1ccccc1CN1C(=O)c2ccccc2Sc2ccc(C(=O)NC3CCCCC3)cc21,nt,-13%,5%,nt,nt,0.1%,2%[46.1 µM],nt
CCCc1nc2cc(CC(=O)OC)ccc2o1,6%,8%,30%[activator],17%,-7%,2.9%,?,-16%
O=C(NCc1ccccc1F)c1ccc2c(c1)OCCO2,16%,nt,43%[activator],17%,-3%,nt,-14%,2%
Cc1ccc(-c2nc3cc(C)ccc3o2)cc1,?,12%,10µM*,4%,-2%,2.6%,14µM*,-12%
COC(=O)c1oc2ccccc2c1NC(=O)/C=C/C(=O)O,11%[46.1 µM],nt,-12%,-2%,-3%,nt,3%[46.1 µM],6%
COC(=O)c1cnc(N2CCN(c3ccccc3F)CC2)c2ccccc12,nt,11%,-13%,nt,nt,-5.0%,-27%[46.1 µM],nt
O=C(O)c1ccc(N/N=C/c2cc3c(cc2[N+](=O)[O-])OCO3)cc1,?,nt,-17%,-9%,1%,nt,13%[46.1 µM],nt
Cc1ccccc1C(=O)Nc1c(-c2cccs2)c(=O)c2ccccc2n1C,nt,nt,-6%,-7%,0%,nt,nt,5%
O=C1OCCC1S(=O)(=O)c1ccc2ccccc2c1 (stereo not drawn),23%,-2%,8%,-1%,-3%,-2.3%,-10%,6%
CCCCn1c(N)c(N(CCOC)C(=O)c2cc(Cl)nc3ccccc23)c(=O)[nH]c1=O,-2%,nt,-28%,11%,3%,nt,5%,nt
O=C(CN1C(=O)C2(OCCO2)c2ccccc21)c1ccc(Cl)cc1,4%,-18%,-20%,4%,-12%,-3.5%,-4%,-8%
Cc1nn(Cc2ccc(Cl)cc2)c(C)c1NC(=O)CSc1n[nH]c(C)c1[N+](=O)[O-],-16%,-2%,-10%,-4%,3%,-4.5%,0%,-12%
COc1ccc(-c2nc(CNC(=O)NC3CCCCC3)c(C)o2)c(OC)c1,nt,3%,8%,nt,nt,-0.8%,-2%[46.1 µM],nt
CC(C)c1cc(-c2nc(-c3ccc(Br)cc3)no2)n[nH]1,nt,14%,2%,nt,nt,-2.9%,11%[46.1 µM],nt
O=C(NCc1ccc(F)cc1)C(c1ccc(F)cc1)N(C(=O)c1csnn1)C1CC1 (stereo not drawn),?,nt,5%,18%,2%,nt,-2%[46.1 µM],14%
O=C(NCC1CCCO1)c1cc(-c2ccccc2)on1 (stereo not drawn),5%,-1%,nt,-15%,6%,-1.1%,-14%,-9%
CCOC(=O)c1c(C)c(-c2ccccc2)n(CC(=O)NC2CCCCC2)c1C,0%[46.1 µM],5%,-7%,nt,nt,-1.5%,nt,nt
# Continued.
SMILES,MARV entry inh,Cruzain noTriton,2A StopGo,RE007 growth inh,SARS PLP yeast,Cruzain Triton,LASV entry inh,NS1 inh
O=C(Nc1ccccc1)/C(=C/c1ccc([N+](=O)[O-])cc1)NC(=O)c1ccccc1,?,10µM*,20%,5%,7%,5.5%,0%,8%
Cc1ccc(Cl)cc1NC(=S)N(C)N,nt,nt,7%,6%,0%,nt,nt,1%
CCc1nn(CC(=O)NCc2ccccc2Cl)c(=O)c2cccn12,?,-1%,14%&-2%,-3%,6%,-12%,?,23%
Oc1ccc(Br)cc1/C=N/Nc1nc(N2CCCCC2)nc(N2CCOCC2)n1,2.5µM*,nt,-18%,-2%,-2%,nt,-20%[46.1 µM],1%
CCCCOC(=O)C1=C(C)NC(=O)NC1c1cc2c(cc1Br)OCO2 (stereo not drawn),nt,nt,?,-7%,8%,nt,nt,30%
O=C(Nc1ccccc1N1CCOCC1)c1cc(-c2ccncc2)nc2ccccc12,?,nt,?,13%,-8%,nt,?,nt
CCOC(=O)c1sc(NC(=O)CSc2nccc(C)n2)nc1C,nt,nt,-23%,8%,-1%,nt,nt,0%
O=C(COC(=O)/C=C/c1nc2ccccc2s1)Nc1cccc(Cl)c1Cl,?,10µM*,-16%,5%,-3%,-2.0%,-2%,7%
Cc1cccc(N2CCN(C(=O)Cc3ccccc3[N+](=O)[O-])CC2)c1C,nt,nt,43%[activator],6%,-6%,nt,nt,-23%
CNC(=O)c1ccsc1NC(=O)CCS(=O)(=O)c1ccccc1,-1%,nt,-3%,6%,1%,nt,14%,nt
COC(=O)c1ccc(OC(=O)c2ccc(OC)c(OC)c2)c(OC)c1,-18%,30%,-6%,-3%,0%,-2.7%,-25%,-10%
Cc1ccc(NC(=O)C(CC(C)C)NC(N)=O)cc1Cl (stereo not drawn),20%,-1%,-21%,9%,-10%,-1.8%,-7%,-4%
CC(=O)c1c(C)[nH]c(C(=O)Nc2cc(C)ccc2C)c1C,-1%,6%,1%,0%,-8%,0.4%,nt,0%
Cc1ccc(NC(=O)CCc2c(C)nc3c(-c4ccccc4)c(C)nn3c2C)c(C)c1,6%[46.1 µM],-4%,-18%,nt,nt,0.7%,?,nt
COC(=O)[C@@H]1C[C@@]2(O)[C@H](O)[C@H](O)[C@H](O)C[C@H]2N1Cc1ccc(-c2ccccc2)cc1,nt,0%,-10%,1%,-5%,3.6%,nt,5%
c1ccc2oc(CCc3nc4ccccc4o3)nc2c1,?,4%,19%,16%,4%,5.9%,-11%,-16%
O=C(Nc1ccc2c(c1)OCO2)C1CCN(C(=O)CSc2ncnc3ccccc23)CC1,-19%&-19%,-16%,-19%,5%,-7%,-7.7%,1%,-12%
Cc1ccccc1-c1cc2c(nn1)-c1ccccc1C2=O,?,1%,-19%,-19%,-17%,-5.9%,?,-120%
C=CCn1c(O)c(/C(C)=N/N2CCCCC2)c(=O)[nH]c1=O,0%[14.2 µM],nt,-16%,44%,-3%,nt,1%,-1%
O=C1CCC(=O)N1c1ccc(-c2nc3sc4c(c3c(=O)o2)CCC4)cc1,-7%[46.1 µM],nt,3%,-20%,-1%,nt,23%,0%
Cc1ccc(C)c(S(=O)(=O)N/N=C2/CCCc3ccccc32)c1,?,4%,64%[activator],3%,-8%,-12%,0%,3%
C=CCn1c(COc2ccccc2OC)nc2ccccc21,nt,nt,36%[activator],-19%,-3%,nt,nt,-30%
CC1CCN(c2c(NCc3ccc(C(=O)NCc4ccccc4)cc3)c(=O)c2=O)CC1,-18%[46.1 µM],nt,-9%,-7%,-1%,nt,16%,12%
CCn1c(COc2ccccc2)nnc1SCC(=O)NC1CCCCC1,?,-2%,-19%,4%,-1%,1.8%,-18%,-2%
Cc1cccc(NC(=S)N2CCC(c3nc4ccccc4o3)CC2)c1C,10%,6%,nt,9%,14%,-6.5%,-24%,-12%
# Continuation.
SMILES,MARV entry inh,Cruzain noTriton,2A StopGo,RE007 growth inh,SARS PLP yeast,Cruzain Triton,LASV entry inh,NS1 inh
Cc1sc2nc(COC(=O)c3ccc(Cl)c(N)c3)[nH]c(=O)c2c1C,nt,nt,-9%,0%,1%,nt,nt,5%
CN1C2CCC1CC(OC(=O)c1ccc(Cl)cc1)C2 (stereo not drawn),-18%,-3%,0%,-6%,?,1.7%,-6%,2%
COC(=O)Cn1cnc2c(C#N)c3n(c2c1=O)CCCCC3,2%,-2%,14%,1%,2%,1.6%,26%,11%
CC(=O)NCCOC(=O)Nc1ccncc1,0%,-4%,-7%,11%,6%,2.0%,13%,-3%
O=C(OC1CCCCC1=O)c1cccc(S(=O)(=O)N2CCOCC2)c1 (stereo not drawn),11%,nt,-9%,-13%,-7%,nt,9%,nt
Cn1cc(-c2cc3n(n2)CCC(=O)N3CCCC(=O)NCc2ccccc2)c2ccccc21,nt,?,-17%,nt,nt,-2.5%,-11%[46.1 µM],nt
CCN1CC(CN(C)Cc2cn(-c3ccc(C)cc3)nc2-c2ccc(F)cc2)CC1=O (stereo not drawn),0%[46.1 µM],nt,-7%,2%,-2%,nt,?,-3%
Cc1ccc(S(=O)(=O)N2CCCOC2CNC(=O)C(=O)NCc2ccncc2)cc1 (stereo not drawn),?,-13%,-9%,10%,8%,0.6%,5%,-7%
O=C(CC12CC3CC(CC(C3)C1)C2)NCc1ccccc1,10%[46.1 µM],nt,1%,16%,-3%,nt,3%[46.1 µM],-7%
COc1cc(-c2nc(Cc3ccccc3Cl)no2)cc(OC)c1OC,?,?,34%[activator],4%,-14%,-6.9%,-29%,-56%
Cc1ccc(/C=N/NC(=O)c2ccc(N(C)S(=O)(=O)c3ccccc3)cc2)cc1,?,nt,-9%,-3%,-3%,nt,?,14%
S=c1[nH]ccn1-c1ccccc1Cl,7%&7%,nt,-5%,18%,0%&1%,nt,8%,6%&1%
